# HTT promoter inh = inhibitors of huntingtin promoter activity | AID 1508623 | HEK293 HTT promoter firefly luciferase reporter (activity 0% = vehicle and -100% = no light), 24 h | Potency, µM (doses to about 57.5 µM), without a hit: at the highest dose activity change, negative = inhibition, most hits filed as inhibitors | 48,000 tested, 0.93% active; active = well fitted inhibition curve with a large enough effect; inconclusive = small, poorly fitted or top-dose-only effect; inactive = no such curve, though single readings can be large or run the other way; also: nearly all actives have a fitted effect of over 50% in size
#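 Firefly luciferase signal from promoter-reporter HEK293 cells was scaled between vehicle (0%) and zero RLU (-100%). Compounds were tested at final concentrations of up to 57.5 uM over 24 h at 37 degrees C. PTC124 at 50 uM final served as control inhibitor.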
# PMP22 txn = modulates PMP22 transcription in S16 Schwann cells. 43,000 tested, 2% active. S16 Pmp22-F2sN Schwann cells (luciferase reporters placed in the Pmp22 gene), FLuc/NLuc coincidence luminescence, 24 h. AID 1508649. Potency, µM (top dose mostly 57.5 µM), without a hit: at the top dose activity change, negative = inhibition, hits mostly inhibitors; active = clear falling dose curves in both reporters; inconclusive = both reporters move, but less clearly or upward; inactive = either reporter flat; the % is the NLuc reporter signal; also: % is scaled to controls: 0 for no effect and ±100 for the full control effect; some results filed as inactive show a strong effect at the top dose
#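 S16 Schwann cells carrying FLuc/NLuc coincidence reporter in the Pmp22 3' UTR treated with compound 24 h at 37C; FLuc then NLuc luminescence read sequentially by dual-luciferase reagents.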
# * marks the source's active call; other numbers are inactive results; ? = inconclusive; . = no result given; [ ] = another dose, or the depositor's remark. Potency is read from the fitted curve at half-maximal effect. Rows were taken by chance (roughly 2.4% active in at least one column).
No.	mol	HTT promoter inh	PMP22 txn
1	COC(=O)c1c(-c2cccs2)csc1NC(=O)c1ccc(C)cc1	43.1%[activator]	-5.3%
2	Cc1ccc(N2CCN(C(=O)c3cnc(N4CCCCC4)c4ccccc34)CC2)c(C)c1	?	?
3	O=C(O)Cc1ccccc1Oc1ccc(Cl)cc1Cl	0.2%	.
4	COc1ccc(N2CC(NC(=O)C(c3ccccc3)c3ccccc3)CC2=O)cc1OC (stereo not given)	3.2%	-2.5%
5	CCc1ccc2c(c1)NC(c1ccc(OC)cc1)=NC(c1ccncc1)=N2	-18.8%	-1.7%
6	Clc1ccc(Nc2nnc(Cc3ccncc3)c3ccccc23)cc1	?	.
7	CCc1ccccc1NC(=O)CN1C(=O)CCn2nc(-c3cccn3C)cc21	7.8%	3.5%
8	Cc1ccc2c(CC(=O)N(Cc3cccc(Cl)c3)C3CCS(=O)(=O)C3)coc2c1 (stereo not given)	-31.7%	-28.9%
9	O=c1c2sc3ccccc3c2n(Cc2ccc(F)cc2Cl)c(=O)n1Cc1ccccc1	-7.2%	?
10	CCOc1ccc(CNC(=O)Cn2nc(N3CCN(c4ccccc4)CC3)ccc2=O)cc1	-14.7%	-24.8%
11	Cc1cccc(-n2c(=O)c3c(c4cc(C)ccc4n3C)n(CC(=O)Nc3ccc(C)c(C)c3)c2=O)c1	-20.9%	-19.8%
12	COc1ccc(CCNC(=O)CCS(=O)(=O)c2ccc3c(c2)oc(=O)n3C)cc1OC	31.9%[activator][11.5 µM]	-4.4%
13	O=c1cc(-c2ccccc2)n2c(SCc3ccc(F)cc3)nnc2[nH]1	-8.0%	-28.3%
14	Cc1cc(NC(=O)CSc2nc3c([nH]c4ccccc43)c(=O)n2-c2ccccc2F)no1	-9.5%	-8.0%
15	COc1ccc(S(=O)(=O)N(CC(=O)N(C)Cc2ccccc2)c2ccc(Cl)cc2)cc1	-21.1%	?
16	CCOc1ccc(CNC(=O)Cc2ccc(NC(=O)N3CCSc4ncccc43)cc2)cc1	?	-30.0%
17	CCOc1cccc(CNC(=O)c2ccc(N3CCCC3)c(NC(=O)NCc3ccc(F)cc3)c2)c1	?	?
18	O=C1c2[nH]nc(-c3ccc(Br)cc3)c2C(c2cccc(O)c2)N1c1ccc(Cl)cc1 (stereo not given)	?	?
19	COc1ccc(CNC(=O)c2cnc3sc(N4CCCCCC4)nn3c2=O)cc1	10.1%	-7.2%
20	Cc1cccc(NC(=O)CSc2nc3ccc(NC(=O)COc4ccccc4C)cc3s2)c1	-10.7%	?
21	Cc1cn2c(=O)cc(COC(=O)c3cccc(NC(=O)COc4ccc(Cl)cc4)c3)nc2s1	-16.4%	-3.1%
22	CC(C)CCN1C(=O)c2ccccc2CC1(C)C(=O)NC1CCC(C)CC1 (stereo not given)	-7.2%	-2.3%
23	CCN(CC)c1ncnc2c1cnn2-c1cc(Cl)ccc1C	-15.7%	?
24	CSc1ccc(CCNC(=O)NCc2noc3ccccc23)cc1	-30.2%	56.5%
25	CCN(CC)S(=O)(=O)c1ccc(C(=O)NC2CC(=O)N(c3ccc4c(c3)OCCO4)C2)cc1 (stereo not given)	-21.4%	-16.0%
26	CCc1ccc(NC(=O)Cn2nnc(C(=O)NCc3ccc(C)cc3)c2N)cc1	-2.0%	7.3%
27	Cc1nn(C(=O)c2ccc(Cl)cc2)c(C)c1S(=O)(=O)N1CCCCCC1	-8.4%	-11.2%
28	COCCNc1oc(/C=C/c2ccc(F)cc2)nc1C#N	61.1%[activator]	4.3%
29	CCC(Oc1ccccc1-c1nnc(-c2ccccc2)o1)C(=O)Nc1ccc(C(C)=O)cc1 (stereo not given)	-15.0%	-4.0%
30	COc1ccc(Cn2c(=O)c3oc4ccccc4c3n(CC(=O)Nc3c(C)cccc3C)c2=O)cc1	5.2%	?
31	O=c1c2oc3ccccc3c2ncn1Cc1ccc(Br)cc1	-3.7%	-18.6%
32	Cc1oc(-c2ccc(C(=O)NCCN(C)C)cc2)nc1CS(=O)(=O)c1ccccc1	-9.5%[11.5 µM]	-2.8%
33	Cc1nnc(NC(=O)CSc2nccn2Cc2ccccc2)s1	-12.7%	1.3%
34	CCOc1ccc(C(=O)CSc2nnc3cc(C)c4ccccc4n23)cc1	-8.2%	-16.5%
35	COc1cc(N2C(=O)CSC23C(=O)N(C)c2ccccc23)cc(OC)c1OC (stereo not given)	-5.4%	-15.1%
36	CCOC(=O)COc1ccc(C)cc1C(=O)c1ccn2nc(-c3ccc(C)cc3)cc2n1	-9.3%	?
37	COc1cccc(NC(=O)Cc2csc(COc3cccc(C)c3)n2)c1	-6.1%	-6.1%
38	O=C(COc1ccccc1F)OCc1cc(=O)n2nc(-c3cccs3)sc2n1	-12.6%	-69.4%
39	Cc1ccc(-c2cc(C(=O)Oc3ccc(C#N)cc3)no2)cc1C	15.7%	-23.1%
40	Clc1ccc2nc(-c3ccc(Br)o3)c(Nc3ccc4c(c3)OCCO4)n2c1	32.1%	?
41	CCN(c1ncnc2c1cnn2-c1cc(Cl)ccc1C)C1CCCCC1	?	?
42	CCOc1ccccc1N1CC(c2nc3ccccc3n2Cc2c(C)cc(C)cc2C)CC1=O (stereo not given)	25.3%	-0.8%
43	O=S(=O)(Nc1ccc2nc(-c3cccc(Cl)c3)oc2c1)c1ccccc1	13.8%	-19.7%
44	Cc1c(Cl)cccc1NC(=O)c1cc2sccc2n1Cc1ccc(F)cc1	-30.1%	-10.4%
45	COc1ccc(C(=O)Nc2cc(C(C)C)c(O)c(S(=O)(=O)c3ccc(OC)cc3)c2C)cc1	30.4%[activator]	-15.9%
46	CCOC(=O)c1cc(-c2ccccc2)n(CCCC(=O)Nc2ccccc2C)c1C	?	?
47	CCc1cc2c(cc3c(=O)n(CCCC(=O)NCc4ccccc4Cl)nc(CC)n32)s1	5.7%	-22.4%
48	Cc1nn(CC(=O)N2CCN(c3cccc(C(F)(F)F)c3)CC2)c(=O)c2cc3sccc3n12	-6.8%	-1.7%
49	O=C(O)CC(NS(=O)(=O)c1ccc(Cl)s1)c1ccccc1 (stereo not given)	-5.3%	0.5%
50	COC(=O)c1c(NC(=O)COc2ccc(Cl)cc2)sc(C)c1C	-1.8%	13.5%

# Continued:
No.	mol	HTT promoter inh	PMP22 txn
51	COc1ccc(CCNC(=O)CN(c2ccc(C)cc2)S(=O)(=O)c2ccc(OC)cc2)cc1	-18.4%	-2.3%
52	CC(=O)N1CCc2c(sc3nc(SCC(C)C)n(-c4ccc(C)c(Cl)c4)c(=O)c23)C1	?	?
53	CCN1C(C(=O)c2ccccc2)=C(OC(=O)COc2ccc(C)cc2)c2ccccc2S1(=O)=O	?	-34.8%
54	Cc1cccc(NC(=O)Cn2c(=O)nc(-c3ccccc3)c3ccccc32)c1C	-15.0%	-93.9%
55	CCN(C(=O)CN1C(=O)COc2ccc(S(=O)(=O)N3CCOCC3)cc21)c1ccc(OC)cc1	-5.3%	0.4%
56	CCCN1C(=O)C(O)(CC(=O)c2ccc(CC)cc2)c2cc(Br)ccc21 (stereo not given)	?	12.6µM*
57	CC(=O)Nc1ccc(S(=O)(=O)N2CCC(c3ccncc3)CC2)cc1	-12.6%	?
58	CCc1cccc(NC(=O)Cn2c(-c3ccc(F)cc3)cc(C(C)=O)c2C)c1	?	1.1%
59	O=C(NCc1cccs1)c1ccc(CSc2nc3ccncc3n2Cc2ccccc2)cc1	0.4%	-50.4%
60	CCCNC(=O)C1CCC(Cn2c(=O)c3sccc3n(Cc3ccccc3C)c2=O)CC1 (stereo not given)	9.1%	-14.7%
61	Cn1c(=O)oc2cc(S(=O)(=O)N3CCCC(C(=O)N4CCN(c5cccc(Cl)c5)CC4)C3)ccc21 (stereo not given)	?	12.7µM*
62	COc1ccc(-c2oc3ncn4nc(COc5ccc(C)cc5)nc4c3c2-c2ccc(OC)cc2)cc1	-9.3%	1.8%
63	CCOc1cc(-c2ccc(OC(=O)c3ccc(OC)cc3)c(OC)c2)cc(=O)c2c(C)oc(C)c12	?	?
64	CCN(CC)S(=O)(=O)c1ccc2c(c1)c(=O)c(C(=O)N1CCN(c3ccc(OC)cc3)CC1)cn2C	-1.2%	-2.7%
65	COc1cc(OC)c(NC(=O)CCS(=O)(=O)c2ccc3c(c2)oc(=O)n3C)cc1Cl	-2.2%[11.5 µM]	-17.2%
66	Cc1c(C(=O)Nc2ccc(F)c(F)c2)oc2ccc(S(=O)(=O)N3CCCCC3)cc12	-31.5%	?
67	Cc1ccc(-n2c(=O)c3cccnc3n2CC(=O)Nc2cc(Cl)ccc2C)cc1	10.7%	-10.1%
68	Cc1ccc2scc(N3CCCCC3C)c(=O)c2c1 (stereo not given)	9.0%	-9.3%
69	Cc1ccc(C)c(Cn2c3ccccc3c3cnn(CC(=O)NCCC4=CCCCC4)c(=O)c32)c1	0.0%	-6.3%
70	COc1ccc(CCNC(=O)CCn2c(=O)c3ccccc3n(Cc3ccccc3C)c2=O)cc1OC	-10.3%	-23.0%
71	O=C(Nc1c2c(nn1-c1ccc(Cl)cc1)CS(=O)(=O)C2)c1ccc(Br)cc1	?	?
72	CCOC(=O)C1CCN(C(=O)c2cc3sc(C)cc3n2C)CC1	12.8%	4.8%
73	O=c1c(-c2ccccc2)c1-c1ccccc1	?	.
74	O=C(c1ccc2c(c1)N(Cc1ccc(F)cc1)C(=O)c1ccccc1S2(=O)=O)N1CCC(Cc2ccccc2)CC1	-12.7%	?
75	CCC(O)c1nc2ccccc2n1Cc1cccc(Cl)c1 (stereo not given)	?	?

# Reformatted as labelled records: 4 of the compounds above.
[63] CCOc1cc(-c2ccc(OC(=O)c3ccc(OC)cc3)c(OC)c2)cc(=O)c2c(C)oc(C)c12
  HTT promoter inh: ?
  PMP22 txn: ?

[64] CCN(CC)S(=O)(=O)c1ccc2c(c1)c(=O)c(C(=O)N1CCN(c3ccc(OC)cc3)CC1)cn2C
  HTT promoter inh: -1.2%
  PMP22 txn: -2.7%

[65] COc1cc(OC)c(NC(=O)CCS(=O)(=O)c2ccc3c(c2)oc(=O)n3C)cc1Cl
  HTT promoter inh: -2.2%[11.5 µM]
  PMP22 txn: -17.2%

[66] Cc1c(C(=O)Nc2ccc(F)c(F)c2)oc2ccc(S(=O)(=O)N3CCCCC3)cc12
  HTT promoter inh: -31.5%
  PMP22 txn: ?

# Next records follow:
No.	mol	HTT promoter inh	PMP22 txn
76	CC1=C(C(=O)OC2CCCCCC2)C(c2cccc(F)c2F)CC(=O)N1 (stereo not given)	?	-15.6%
77	COc1ccc(NC(=O)CSc2nc(-c3ccc(F)cc3)[nH]c2-c2ccc(C)cc2)cc1OC	?	?
78	O=C(Nc1ccc2nc(SCC(=O)N3CCOCC3)sc2c1)c1ccc(F)cc1	?	9.6%
79	Cc1ccc(-c2noc(CNC(=O)c3ccccc3)n2)cc1	-10.6%	-10.0%
80	CCOc1ccccc1NC(=O)CSc1nc2c([nH]c3ccccc32)c(=O)n1-c1ccccc1	-27.6%	-14.7%
81	CCOC(=O)N1CCC(NC(=O)c2ccc3c(c2)N(Cc2ccccc2)C(=O)c2ccccc2S3(=O)=O)CC1	-23.8%	2.8%
82	CCC(C)NC(=O)c1cn(CC)c2ccc(S(=O)(=O)N3CCc4ccccc4C3)cc2c1=O (stereo not given)	-25.1%	16.8µM*
83	COc1cc2c(cc1OC)C(COc1ccc3c(C)cc(=O)oc3c1)N(C(=O)c1ccccc1C)CC2 (stereo not given)	-17.2%	?
84	CCOCCCNC(=O)Cn1ncc2c([nH]c3ccccc32)c1=O	2.7%	0.3%
85	Cc1nn(CCC(=O)N2CCN(c3ccccc3F)CC2)c(C)c1S(=O)(=O)N1CCCC1	?	-14.4%
86	COc1ccccc1OCC(=O)N1CCC(c2nc3ccccc3o2)CC1	-6.9%	-13.7%
87	Cc1cc(N2CCN(c3ccccc3F)CC2)n2cnnc2n1	-33.0%	-35.1%
88	CC(=O)c1cccc(NC(=O)c2nc3ccccc3n(C)c2=O)c1	-15.7%	?
89	Cc1ccc(C)c(OCc2nc3ccccc3n2C)c1	19.9%	-2.7%
90	COc1ccc(CNC(=O)CSc2ncc3c(n2)-c2ccc(Cl)cc2N(Cc2ccccc2)S3(=O)=O)cc1	-10.9%	?
91	COc1ccc(NC(=O)NCC2CCN(Cc3ccccc3F)CC2)c(OC)c1	-11.3%	?
92	Cc1cccc(-c2nnc(SCC(=O)NC3CCCCC3)o2)c1	-29.8%	20.9%
93	Cc1ccc(NC(=O)c2cc(-c3ccc(Br)s3)nc3ccccc23)cc1F	2.9%	?
94	CCOc1ccc(CNC(=O)c2cc(=O)[nH]c3ccc(S(=O)(=O)N4CCCC4)cc23)cc1	-2.7%	2.5%
95	COC(=O)c1c(-c2ccc(Cl)cc2)noc1N1CCN(c2cccc(C(F)(F)F)c2)CC1	-27.0%	5.39µM*
96	CCc1cc2c(cc3c(=O)n(CC(=O)N4CCCCC4)nc(CC)n32)s1	-14.0%	-29.1%
97	Cc1ccc2c(CC(=O)Nc3ccc(S(=O)(=O)N4CCC(C)CC4)cc3)coc2c1	?	?
98	COc1ccccc1NC(=O)C1=C(C)Nc2ncnn2C1c1sccc1C (stereo not given)	-8.4%	-15.1%
